Source: PubChem BioAssay
Rango release inh: qHTS Assay for Inhibitors of RanGTP induced Rango (Ran-regulated importin-beta cargo) - Importin beta complex dissociation; AID 540253, 2011; Snurportin-1 (Homo sapiens) + GTP-binding nuclear protein Ran (Homo sapiens) + Importin …; Potency, µM (titrated, usually from 46.1 µM), for inactives: top-dose activity change, negative = inhibition; 340,000 tested, 0.071% active; Biochemical FRET Rango-importin beta, RanGTP-induced dissociation; active means falling FRET ratio curve, often poorly fitted, with flat reads before Ran was added; inconclusive means other falling curves, or compound fluorescence or quenching; inactive means flat or rising ratio curve;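 note: potency is the fitted concentration of half-maximal effect; % of control where 0% means no effect; nearly all actives have a fitted effect of over 45% in size; -100% = wells without RanGTP and RCC1; the record marks most hits as doubtful in a second field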
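Two FRET readings bracket the reaction: one 5 min after compound meets Rango–importin beta, another 45 min after RanGTP-RCC1 (0.6 uM Ran, 0.2 uM RCC1, 2 mM GTP) is added. Only the second defines inhibition.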
miR-21 FLuc: qHTS Assay for Modulators of miRNAs and/orActivators of miR-21 | Potency, µM (series often up to 38.3 µM), inactives show top-dose reporter change, positive = more light | HeLa miR-21 FLuc reporter, luciferase, 48 h | 340,000 tested, under 10 active; active = well fitted rising curve with a large enough effect; inconclusive = small, poorly fitted or top-dose-only effect; inactive = no such curve, though single readings can be large or run the other way;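 note: % of control where 0% means no effect; miR-21 action dims this reporter so a rising signal means less miR-21 action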
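HeLa cells stably expressing CMV-driven firefly luciferase with a downstream miR-21 binding sequence, endogenously expressing miR-21, were treated with titrations (up to about 40uM final) for 48 hours at 37 degree Celsius. Luciferase luminescence was read after lysis.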
GLA inh pH 4.5: qHTS Assay for Inhibitors of Human alpha-Galactosidase at pH 4.5; Alpha-galactosidase A (Homo sapiens), P06280; purified enzyme, 4-MU-alpha-Gal fluorescence, pH 4.5; activity change, negative = inhibition, % at 105 µM; 230,000 tested, under 10 active; AID 1467, 2008; inconclusive = small, poorly fitted or top-dose-only inhibition, or a rising curve; inactive = flat fitted curve, though single readings scatter; no compound was filed as active;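 note: 0% = full activity with enzyme and -100% = basal without enzyme; dose as in the result columns while the protocol names 77 µM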
Rango complex inh: qHTS Assay for Inhibitors of Rango (Ran-regulated importin-beta cargo) - Importin beta complex formation | 340,000 tested, 0.031% active | Rango CFP/YFP FRET sensor + importin beta, 45 min | AID 540263, 2011 | Potency, µM (highest dose often 92.2 µM), for inactives: at the top dose inhibition of complex formation | Importin subunit beta-1 (Homo sapiens), Q14974; active = rising FRET ratio curve, often small or poorly fitted; inconclusive = mostly compound fluorescence or quenching in the first reads; inactive = flat curves in all reads;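 note: potency is the fitted concentration of half-maximal effect; 0% = DMSO wells and 100% = buffer wells lacking importin beta; nearly all actives have a fitted effect of over 15% in size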
Target sequence (Q14974 whole entry, looked up): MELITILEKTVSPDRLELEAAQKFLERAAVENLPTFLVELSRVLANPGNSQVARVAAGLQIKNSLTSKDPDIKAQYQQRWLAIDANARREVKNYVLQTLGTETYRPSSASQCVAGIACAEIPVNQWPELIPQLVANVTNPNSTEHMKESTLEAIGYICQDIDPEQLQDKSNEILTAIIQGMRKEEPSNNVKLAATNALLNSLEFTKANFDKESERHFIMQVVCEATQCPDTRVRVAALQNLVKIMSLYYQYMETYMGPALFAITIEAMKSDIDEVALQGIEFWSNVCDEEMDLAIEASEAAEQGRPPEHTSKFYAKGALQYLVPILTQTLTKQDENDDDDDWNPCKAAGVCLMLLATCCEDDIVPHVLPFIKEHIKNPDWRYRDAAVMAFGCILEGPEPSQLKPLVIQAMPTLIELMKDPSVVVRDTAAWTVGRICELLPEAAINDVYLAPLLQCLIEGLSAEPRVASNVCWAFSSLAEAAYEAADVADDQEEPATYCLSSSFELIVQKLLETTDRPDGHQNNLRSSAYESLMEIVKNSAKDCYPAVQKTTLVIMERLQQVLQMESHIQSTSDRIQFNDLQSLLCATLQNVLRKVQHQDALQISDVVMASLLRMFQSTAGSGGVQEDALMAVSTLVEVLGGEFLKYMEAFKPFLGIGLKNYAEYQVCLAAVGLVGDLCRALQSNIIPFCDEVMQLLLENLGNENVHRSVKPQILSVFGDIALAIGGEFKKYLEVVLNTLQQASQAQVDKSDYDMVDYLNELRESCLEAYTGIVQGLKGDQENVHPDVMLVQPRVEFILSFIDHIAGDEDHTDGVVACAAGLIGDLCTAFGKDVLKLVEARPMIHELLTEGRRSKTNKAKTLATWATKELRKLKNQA
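Inhibition scored from the CFP 486 nm/YFP 530 nm FRET ratio 45 min after adding 0.125 microM importin beta to 50 nM Rango biosensor preincubated 5 min with compound (room temperature, PBS with DTT, Tween-20, BSA). No-importin wells as positive control.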
Starred values were filed as active, the others as inactive; ? = inconclusive; . = no result given; & = joins results of further samples. This is a subset; the hit share may differ from the screen's.

SMILES | Rango release inh | miR-21 FLuc | GLA inh pH 4.5 | Rango complex inh
Cc1ccc2c(COC(=O)c3c(C)noc3C)cc(=O)oc2c1 | 12% | -21% | 0 | 1.6%
CCCCCN(C(=O)CCC(=O)OC(C)C(=O)NC1CCCCC1)c1c(N)n(CCCC)c(=O)[nH]c1=O (centres undefined) | 4% | . | . | -4.3%
Fc1cccc(Cl)c1CNCc1ccccc1Cl | -2% | -6% | 5 | -2.9%
O=C(CCCn1cnc([N+](=O)[O-])n1)Nc1ccc(Cl)c(Cl)c1 | 3% | -8% | 3 | -0.5%
CC(=O)C1=C(O)C(=O)N(c2cccnc2)C1c1ccc(Cl)cc1 (centres undefined) | -15% | 0% | -3 | -0.4%
Cc1cc(NC(=O)CSc2nc3cc(Cl)ccc3c(=O)n2CC(C)C)no1 | . | 1% | -1 | .
CCCNC(=O)NC(=O)COC(=O)CNS(=O)(=O)/C=C/c1ccccc1 | -4% | 0% | -2 | 0.8%
Cc1cccc(CCNC(=O)CN(C)S(=O)(=O)c2ccc3c(c2)c(=O)n(C)c(=O)n3C)c1 | -8% | 0% | 1 | 3.1%
Nc1ncnc2nc(SCC(=O)Nc3cccc(C(F)(F)F)c3)[nH]c12 | -10% | -24% | . | -0.9%
COCCNc1ccc(N2C(=O)CCCC2=O)cc1[N+](=O)[O-] | 10% | -1% | 1 | 0.2%
CCOC(=O)CN1C(=O)S/C(=C/c2ccc(O)c([N+](=O)[O-])c2)C1=O | 32% | 4% | -14 | 0.4%
COc1cccc(NC(=O)CN(C)S(=O)(=O)c2ccc3c(c2)NC(=O)CS3)c1 | 4% | 7% | . | 0.6%
COc1ccc(-c2nnc(OCc3nc4ccccc4n3C)c3ccccc23)cc1 | 11% | -29% | 1 | 5.9%
COc1ccc(/C=N/NC(=O)CN(Cc2ccccc2)S(=O)(=O)c2ccc3c(c2)OCCO3)cc1 | 4% | 1% | -2 | 7.3%
OCCN(C=NC1=NN(c2cccc(C(F)(F)F)c2)CC1)CCO | 18% | -9% | -2 | -2.6%
CCCc1c(C(=O)NNc2cc(C(F)(F)F)ccc2Cl)cnn1-c1ccccc1 | 14% | -5% | -1 | -0.8%
COCCCn1c(-c2ccsc2)nc2c1c(=O)[nH]c(=O)n2Cc1ccccc1 | -21% | 3% | 8 | 7.8%
CCc1ccc(Cn2nnc(C(=O)NCc3ccccc3OC)c2N)cc1 | -9% | -10% | 1 | 3.8%
Cc1ccc(-n2ncc3c(=O)[nH]c(SCC(=O)N4CCCc5ccccc54)nc32)cc1 | -6% | -2% | 1 | -1.3%
CSc1ccc(/C=C(/NC(=O)c2ccco2)C(=O)N2CCOCC2)cc1 | 12% | -1% | . | 0.6%
O=C1NC(c2ccccc2)=C(c2ccc3ccccc3n2)C(c2ccc(F)cc2)N1 (centres undefined) | -12% | -6% | -9 | -0.9%
CCCCSc1nnc(-c2ccc(NC(C)=O)cc2)n1C | -6% | -4% | 8 | 0.9%
COc1ccc(CCNc2cc(N3CCN(C(=O)c4ccc(C)cc4)CC3)ccc2[N+](=O)[O-])cc1OC | . | 1% | -1 | .
Cc1c(Cl)cccc1NC(=O)CSc1ccc(-c2cccnc2)nn1 | -15% | -3% | 5 | 3.1%
Nc1c(C(=O)N2CCOCC2)sc2nc3c(cc12)CCCC3 | -13% | 17% | . | 0.5%
O=C(CSC1=NS(=O)(=O)c2cc(F)ccc2N1)NCc1ccc(F)cc1 | 5% | . | . | -0.9%
CCOC(=O)C1C(=O)CC(C)(O)C(C(=O)OCC)C1c1ccc(OC)cc1 (centres undefined) | -3% | -2% | 14 | -1.1%
O=C(Cn1ncc2c(=O)oc3ccccc3c21)Nc1nc2ccccc2s1 | . | -14% | 1 | .
COc1cc(Cl)c(C)cc1NC(=O)COC(=O)c1ccc(CN2CCCC2=O)cc1 | 4% | . | . | 2.6%
O=C(N1CCCCC1)N1CCN(S(=O)(=O)c2cccc([N+](=O)[O-])c2)CC1 | -14% | -6% | . | -0.1%
CCn1c2ccccc2c2nnc(SCC(=O)Nc3ncccn3)nc21 | 1% | -6% | -7 | -0.1%
c1ccc(-n2ncc3c(N4CCCCC4)ncnc32)cc1 | 2% | ? | -9 | -7.0%
CCOC(=O)C1=C[C@]2(CC)CCCN3CCc4c(n1c1ccccc41)[C@@H]32 | -11% | -29% | -5 | -1.4%
C/C(=N\NC(=O)C1COc2ccccc2O1)c1cc2ccccc2o1 (centres undefined) | 17% | -2% | 9 | -1.9%
CCOC(=O)c1c(C)[nH]c(C(=O)NCc2ccccn2)c1C | -11% | . | . | -2.9%
COc1ccccc1/C=C/c1nc(S(=O)(=O)c2ccccc2)c(N(C)C)o1 | -3% | -2% | . | -2.4%
Cc1c(C)n(CCCN(C)C)c2ncnc(Nc3ccc(F)cc3)c12 | 0% | -20% | . | 0.6%
Cc1ccccc1OCC(=O)Nc1ccc2c(c1)ncn2C | -9% | . | . | 0.1%
CCC(Sc1ncccn1)C(=O)Nc1cc(C)on1 (centres undefined) | -7% | -1% | -1 | -0.5%
CC[C@@]12C(=O)N(c3ccc(OC)cc3)C(=O)N1[C@H](c1cccc(C)c1)[C@@H]1C(=O)N(Cc3ccccc3)C(=O)[C@@H]12 | -11% | 1% | . | ?
CCN1CCN(CC(=O)N2c3ccccc3CC2C)CC1 (centres undefined) | 6% | -2% | -5 | -0.6%
CCn1c(SCc2ccc(C(=O)OC)o2)nnc1-c1c[nH]c2ccccc12 | -16% | 2% | -20 | -3.3%
COC(=O)c1ccccc1OC(=O)c1cc[n+]([O-])cc1 | 26% | 0% | 0 | 1.8%
Cc1ccc2c(c1)N(CC(=O)Nc1c(C)cccc1C)C(=O)c1cccnc1O2 | 23% | -6% | . | 3.9%
CC1C(=O)Nc2ccccc2N1C(=O)c1cccc(C(F)(F)F)c1 (centres undefined) | -19% | -1% | . | -1.2%
Cc1ccc(-c2csc(NC(=O)c3cnccn3)n2)cc1C | -1% | -10% | 9 | -1.1%
CSc1ncccc1C(=O)OCC(=O)N1CCN(S(=O)(=O)c2ccc(C)cc2C)CC1 | 20% | . | . | 3.0%
Cn1c(SCC(=O)c2ccc3c(c2)OCCO3)nnc1C1CC1 | -13% | -28% | 0 | 0.4%
Cc1nc2ccccc2c(=O)n1/N=C/c1ccc(F)cc1 | 2% | -15% | . | ?
Cc1ccc(C(c2sc3nc(C)nn3c2O)N2CCN(CCO)CC2)cc1 (centres undefined) | 4% | 2% | 2 | 1.8%
O=C(CCC(=O)c1cccs1)c1cccs1 | 15% | -55% | . | 0.6%
CCc1ccc(NC(=O)Cn2ccn(-c3cccc(Cl)c3)c(=O)c2=O)cc1 | 15% | 4%&8% | . | 3.6%
CCN1C(=O)/C(=C/C=C2\N(CC)c3cc(S(=O)(=O)N(C)C)ccc3N2c2ccccc2)SC1=S | 9% | -15% | -14 | -2.3%
Cc1cc(C(=O)COC(=O)/C=C/c2ccc(F)cc2)c(C)n1C | 11% | . | . | -1.1%
Cc1ccc(CN(C)C(=O)c2cccc(S(=O)(=O)N3CCc4ccccc4C3)c2)o1 | -3% | . | . | -0.8%
CCN(CC(=O)Nc1c(F)cccc1F)C(=O)c1ccc(NC(=O)CC2SC(N3CCCC3)=NC2=O)cc1 (centres undefined) | 12% | . | . | -0.2%
CC(=O)Nc1ccc(/C=N/NC(=O)CNS(=O)(=O)c2ccccc2)cc1 | 8% | -6% | -7 | -2.9%
CC(C)c1nc(SCC(=O)N2CCCCCC2)c2c(=O)n(C)c(=O)n(C)c2n1 | -10% | 2% | . | 1.2%
CC(=O)c1ccc(Cl)c(Cl)c1Cl | 0% | . | . | -2.0%
O=C(CSc1nnc(-c2ccc(C(F)(F)F)cn2)o1)Nc1cccc(Cl)c1 | 11% | -68% | 1 | -1.1%

4 entries from above, ordered by heavy-atom count, descending:
SMILES | Rango release inh | miR-21 FLuc | GLA inh pH 4.5 | Rango complex inh
CCN1C(=O)/C(=C/C=C2\N(CC)c3cc(S(=O)(=O)N(C)C)ccc3N2c2ccccc2)SC1=S | 9% | -15% | -14 | -2.3%
Cc1ccc2c(c1)N(CC(=O)Nc1c(C)cccc1C)C(=O)c1cccnc1O2 | 23% | -6% | . | 3.9%
Cn1c(SCC(=O)c2ccc3c(c2)OCCO3)nnc1C1CC1 | -13% | -28% | 0 | 0.4%
Cc1ccc(-c2csc(NC(=O)c3cnccn3)n2)cc1C | -1% | -10% | 9 | -1.1%

More entries follow:
SMILES | Rango release inh | miR-21 FLuc | GLA inh pH 4.5 | Rango complex inh
COc1ccc(CNC(=O)C[C@H]2C[C@H](C(=O)N3CCCCC3)[C@@]3(CCc4ccccc4)c4[nH]c5cc(-c6ccco6)ccc5c4CCN3C2=O)cc1OC | 0% | . | . | ?
O=C(NCC1CCCN(C(=O)Cc2ccccc2Cl)C1)c1ccc(F)cc1 (centres undefined) | 9% | -1% | . | 1.7%
COc1ccc(N2CCN(C(=O)c3ccccc3NC(=O)c3ccccc3)CC2)cc1 | 0% | -2% | . | 4.3%
COc1cc(C(=O)NC2CCN(Cc3ccccc3)CC2)cc(Cl)c1OC | 12% | -4% | . | -0.3%
O=C(CSc1ccc(-c2ccccc2)nn1)N1CCN(c2ccccc2)CC1 | 17% | -5% | -1 | -0.7%
CN(C)C(=O)CCc1ccc2c3c([nH]c2c1)[C@]1(CCC2CCCC2)[C@@H](C(=O)N2CCOCC2)C[C@H](CC(=O)NC(C)(C)C)C(=O)N1CC3 | 20% | . | . | 4.2%
COc1ccccc1NS(=O)(=O)c1ccc(Br)s1 | 0% | -11% | 1 | 3.3%
CCC1(CC)NC(=O)N(CC(=O)N2CCN(c3ccccc3F)CC2)C1=O | -4% | . | . | 1.2%
COc1cccc(CNC(=O)CCS(=O)(=O)Cc2ccc(C)cc2)c1 | -6% | 0% | . | -3.0%
Cc1cc(=O)oc2c(C)c(OC(C)C(=O)NC(Cc3c[nH]c4ccc(O)cc34)C(=O)O)ccc12 (centres undefined) | 1% | 1% | . | -1.1%
CN(CC(CC(=O)Nc1nncs1)c1ccccc1)S(=O)(=O)c1ccc(Br)cc1 (centres undefined) | -13% | 1% | -7 | -1.9%
CC(=O)Oc1c(C)c(C)c2c(c1C)CCC(C)(CCCC(C)CCCC(C)CCCC(C)C)O2 (centres undefined) | -7% | . | 4&-5&-4 | -2.5%
C=CCN([C@H](C(=O)OC)C(C)C)S(=O)(=O)CCNCc1ccccc1 | 0% | . | . | -2.3%
CCOc1ccc(NC(=O)CN(c2ccc(C)cc2)S(=O)(=O)c2c(C)nn(C)c2C)cc1 | -5% | 6% | . | -0.5%
CCOC(=O)C1(Cc2cccc(Cl)c2)CCCN(C(=O)c2cc(C)[nH]n2)C1 (centres undefined) | 6% | -9% | . | -0.8%
COC(C[C@H]1O[C@H]1C(=O)[C@H](C)OCc1ccccc1)OC | -16% | . | . | -2.3%
COc1ccccc1-n1cnc2cc(C(=O)N3CCOCC3)ccc21 | 3% | -16% | . | 0.7%
CC1CN(CCOCCOc2ccccc2-c2ccccc2)CC(C)O1 (centres undefined) | -2% | 3% | . | ?
C=CCNC(=O)c1ccc(Sc2ccc(C)cc2)c([N+](=O)[O-])c1 | -15% | -5% | 3 | 1.3%
Brc1ccc(Nc2nc3ccccc3n3nnnc23)cc1 | . | -16% | 3 | .
CCOC(=O)C1(S(=O)(=O)c2ccc(Cl)cc2)CCN(Cc2ccc(C)cc2)CC1 | -7% | 4% | 4 | -0.3%
CC(Cn1cncn1)C(=O)N1CCN(S(=O)(=O)c2ccccc2)CC1 (centres undefined) | 11% | 11% | . | 0.8%
CC(C)(C)c1ccc(OCC(=O)OCCNC(=O)c2cccnc2)cc1 | -5% | -5% | 5 | -1.6%
Cc1ccc(NC(=O)CCC(=O)NNC(=O)C(C)(C)C)c(C)c1 | 7% | 0% | 4 | 0.4%
CCCCOc1ccc(OCCCC)c2c1NC1(N2)C(=O)N(C(C)=O)c2ccccc21 | 27% | -2% | 3 | -2.5%
